D2 ag = Beta-Arrestin HTS for Positive Allosteric Modulators of the Human D2 Dopamine Receptor: Agonists; D(2) dopamine receptor (Homo sapiens), P14416; DiscoveRx PathHunter D2 beta-arrestin, luminescence, 90 min; 100% = 57 uM dopamine signal; activation, % (no concentration beside the values); 0.084% of 360,000 active; in the data active = activation above about 40%; inconclusive = about 15% to 40%; inactive = below about 15%; note: compound concentration not given in the record; the text of the record calls up to 30% inactive
Target sequence (P14416 whole entry, looked up): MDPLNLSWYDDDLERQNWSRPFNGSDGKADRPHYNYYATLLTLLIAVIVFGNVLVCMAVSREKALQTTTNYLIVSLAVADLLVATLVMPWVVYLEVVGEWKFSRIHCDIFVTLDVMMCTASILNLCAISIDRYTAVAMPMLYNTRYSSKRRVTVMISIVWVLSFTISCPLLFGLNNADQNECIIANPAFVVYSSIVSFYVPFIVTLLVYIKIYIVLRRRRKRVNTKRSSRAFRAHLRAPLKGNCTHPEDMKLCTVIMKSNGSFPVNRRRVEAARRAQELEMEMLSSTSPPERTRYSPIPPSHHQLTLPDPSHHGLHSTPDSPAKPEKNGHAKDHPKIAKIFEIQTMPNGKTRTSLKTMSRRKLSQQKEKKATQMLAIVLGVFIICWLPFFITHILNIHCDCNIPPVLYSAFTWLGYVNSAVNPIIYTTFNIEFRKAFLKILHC
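DiscoveRx PathHunter D2 beta-arrestin cells (2,100/well) attached overnight, then compound-stimulated 90 min at 37 C in HBSS/10 mM HEPES/0.1% Tween-20 buffer; beta-galactosidase complementation read by luminescence after 1 h at ambient temperature. Dopamine 57 uM final (EC100) as control.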
TRPML1 blocker = qHTS for Inhibitors of the Human Mucolipin Transient Receptor Potential 1 (TRPML1) | Mucolipin-1 (Homo sapiens), Q9GZU1 | TRPML1-inducible cells, Ca2+ dye fluorescence, FDSS; stronger effect = lower value; inhibition of EC80 agonist-evoked calcium signal | activity change, negative = inhibition, % (concentration not given with the values) | 0.02% of 390,000 active | AID 624415, 2012; in the data active means activity change below about -50%; inconclusive means about -30% to -50%; inactive means above about -30%;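 note: stimulus is agonist 54-4 at its EC80 concentration; % is set by controls: 0 for no effect and ±100 for the full control effect; compound concentration not given in the record; the text of the record puts the active cut at -80%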
Target sequence (Q9GZU1 whole entry, looked up): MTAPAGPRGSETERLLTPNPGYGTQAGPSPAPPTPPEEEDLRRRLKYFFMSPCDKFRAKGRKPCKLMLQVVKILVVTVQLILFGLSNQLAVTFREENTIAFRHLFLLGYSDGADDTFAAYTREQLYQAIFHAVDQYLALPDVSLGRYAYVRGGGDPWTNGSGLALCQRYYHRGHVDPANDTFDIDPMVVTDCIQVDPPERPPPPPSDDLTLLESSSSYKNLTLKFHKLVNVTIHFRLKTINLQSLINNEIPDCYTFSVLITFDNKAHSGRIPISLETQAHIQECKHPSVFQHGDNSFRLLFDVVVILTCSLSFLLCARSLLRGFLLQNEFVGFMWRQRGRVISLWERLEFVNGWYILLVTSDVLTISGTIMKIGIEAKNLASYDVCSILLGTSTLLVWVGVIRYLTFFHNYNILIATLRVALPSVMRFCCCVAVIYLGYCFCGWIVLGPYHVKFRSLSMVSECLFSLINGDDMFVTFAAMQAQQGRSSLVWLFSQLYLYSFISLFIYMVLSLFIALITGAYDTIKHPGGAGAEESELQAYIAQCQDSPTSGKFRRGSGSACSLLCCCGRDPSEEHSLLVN
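Calcium fluorescence in TRPML1-DL cells induced overnight with Tet: a 110 s read after compound pin addition, then a 110 s antagonist read after challenge with 54-4 at 4 uM final (EC80).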
Six1-Eya2 blk = qHTS Assay for Inhibitors of the Six1/Eya2 Interaction | 0.56% of 360,000 active | activity change, % (test concentration not listed) | AlphaScreen GST-Six1/His-Eya2 binding, biochemical; stronger effect = lower value; control for the full effect not named in the record; in the data active = activity change below about -65%; inconclusive = about -30% to -65%; inactive = above about -30%; note: % is set by controls: 0 for no effect and ±100 for the full control effect; compound concentration not given in the record
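AlphaScreen with GST-Six1 and His-Eya2 (5X mix: 250 nM and 500 nM), glutathione donor and nickel acceptor beads; buffer 50 mM Tris pH 8.0, 300 mM NaCl, 1 mM TCEP; 1 h at 37 C in the dark.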
D2 potentiator = Beta-Arrestin HTS for Positive Allosteric Modulators of the Human D2 Dopamine Receptor: Potentiators | D(2) dopamine receptor (Homo sapiens), P14416 | DiscoveRx D2 beta-arrestin cells, luminescence, 90 min; 100% = 57 uM dopamine signal | potentiation, % (no concentration beside the values) | 0.23% of 360,000 active; active = potentiation of 50% or more; inconclusive = 30% to 50%; inactive = 30% or less;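 note: compound concentration not given in the record; tested on top of an EC20 dose of dopamine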
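PathHunter beta-arrestin assay in DiscoveRx D2 cells. Compounds were added with an EC20 of dopamine (50 nM final) for 90 min at 37 deg C. Luminescence was read 1 h after detection reagent, with 57 uM dopamine as the EC100 control.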
TRPML1 ag = qHTS for Agonists of the Human Mucolipin Transient Receptor Potential 1 (TRPML1). 0.12% of 410,000 active. activation, % (no concentration beside the values). Mucolipin-1 (Homo sapiens), Q9GZU1. TRPML1-expressing cells, Ca2+ dye fluorescence, FDSS; host cell line not named in the record; reference of the full effect not given here; in the data active = activation above about 50%; inconclusive = about 30% to 50%; inactive = below about 30%; note: 0% is about no effect; the text of the record puts the active cut at 80%
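Calcium fluorescence on an FDSS kinetic reader gave the read-out. Tet-induced TRPML1-DL cells were plated overnight, dye-loaded (Ca8 with quencher, 45-90 min, room temperature, dark), then read 110 s after compound addition, and again 110 s after 4uM final 54-4 (EC80).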
PINK1 expr mod = A Quantitative High throughput Screen to Identify Chemical Modulators of PINK1 Expression. PINK1 immunofluorescence, high-content cytometry, 24 h. Potency, µM (top dose mostly 76.6 µM), without a hit: at the top dose activation (PINK1 increase), hits mostly activators. 0.2% of 410,000 active. AID 624263, 2012; active = well fitted activation curve with a large enough effect; inconclusive = small, poorly fitted or top-dose-only effect; inactive = flat fitted curve, though single readings scatter; cell line not stated here;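 note: potency is the fitted concentration of half-maximal effect; % of control where 0% means no effect; nearly all actives have a fitted effect of over 65% in size; a mitochondrial uncoupler was the plate control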
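Compound titrations (5 concentrations, 24 h) on a stable cell line; DMSO and CCCP controls. Endpoint: fixed-cell PINK1 immunofluorescence with mitochondrial, cell and nuclear markers, scanned by microplate cytometer.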
The depositor's hits bear a star; ? = inconclusive; nt = no result given; & = joins results of further samples; [ ] = remark or other dose.

Preview:
mol	TRPML1 ag	D2 potentiator	Six1-Eya2 blk	D2 ag	PINK1 expr mod	TRPML1 blocker
CCNC(=O)C1(C)CCN(Cc2ccc(C(=O)OCC)o2)C1 (configuration not stated)	-0.6	-8	2	-4.9	0.0%	nt
Oc1ccc(-c2cnc(-c3ccc(O)cc3)nc2)cc1	1.6	7	8	0.9	-0.5%	-8

Main list, from the start:
mol	TRPML1 ag	D2 potentiator	Six1-Eya2 blk	D2 ag	PINK1 expr mod	TRPML1 blocker
CCNC(=O)C1(C)CCN(Cc2ccc(C(=O)OCC)o2)C1 (configuration not stated)	-0.6	-8	2	-4.9	0.0%	nt
Oc1ccc(-c2cnc(-c3ccc(O)cc3)nc2)cc1	1.6	7	8	0.9	-0.5%	-8
Cc1ccc(/C(O)=C2/C(=O)C(=O)N(CCCn3ccnc3)C2c2cccnc2)cc1 (configuration not stated)	-0.1	-4	3	2.5	0.1%	12
CCN(CC)CCOC(=O)c1ccc(N/C=C(/C#N)c2nc(-c3ccc4c(c3)OCO4)cs2)cc1	-0.1	-10	-8	-2.5	0.6%	6
COc1ccc(NCc2cc3ccc(OC)cc3n(CC(=O)Nc3cc(Cl)ccc3C)c2=O)cc1	6.1	nt	nt	nt	1.0%	15
CN(C)C(=O)COC(=O)c1cccc(S(=O)(=O)Nc2ccc(OCc3ccccc3)cc2)c1	0.0	8	-9	-3.9	1.7%	14
COc1ccc(C2Nc3ccccc3C(=O)N2Cc2ccccc2)cc1OC (configuration not stated)	5.6	2	-1	-1.3	6.3%	0
CC(C)CCSc1nnc(Cn2c(=O)sc3ccccc32)n1C	1.0	-6	5	-3.6	-0.2%	11
O=C(NC(Cc1ccccc1)C(=O)O)/C(=C/c1ccc([N+](=O)[O-])cc1)NC(=O)c1ccccc1 (configuration not stated)	-1.0	-3	-19	-9.3	0.6%	17
O=C(NC1CCCCCC1)C1CCN(S(=O)(=O)c2cnc[nH]2)CC1	1.4	-10	0	7.3	-1.7%	-1
COc1cccc(NC(=O)C(Cc2ccccc2)NS(=O)(=O)c2ccc3c(c2)oc(=O)n3C)c1 (configuration not stated)	0.1	nt	nt	nt	0.0%	5
O=C(COC(=O)Cc1ccccc1F)NCc1ccc(Cl)cc1	-0.1	-4	16	0.6	2.8%	-5
O=S(=O)(c1cc(Cl)ccc1Cl)n1ccnc1	0.6	-3	5	-1.4	-1.7%	9
Cc1ccc(C(=O)NCC(=O)OC(C)C(=O)NC2CCCCC2C)cc1C (configuration not stated)	0.1	-4	5	-1.7	-2.2%	-9
OCCNc1nc(OCC(F)(F)F)nc(N2CCN(C34CC5CC(CC(C5)C3)C4)CC2)n1	2.8	1	-2	-2.6	-2.2%	18
O=S(=O)(NC1CCN(Cc2ccccc2)CC1)c1cccc(S(=O)(=O)N2CCOCC2)c1	-0.1	-22	3	-0.8	0.6%	1

Reformatted with two lines to a compound: entries from further up.
The line under a structure holds: TRPML1 ag	D2 potentiator	Six1-Eya2 blk	D2 ag	PINK1 expr mod	TRPML1 blocker
> O=C(NC(Cc1ccccc1)C(=O)O)/C(=C/c1ccc([N+](=O)[O-])cc1)NC(=O)c1ccccc1 (configuration not stated)
    -1.0	-3	-19	-9.3	0.6%	17
> O=C(NC1CCCCCC1)C1CCN(S(=O)(=O)c2cnc[nH]2)CC1
    1.4	-10	0	7.3	-1.7%	-1
> COc1cccc(NC(=O)C(Cc2ccccc2)NS(=O)(=O)c2ccc3c(c2)oc(=O)n3C)c1 (configuration not stated)
    0.1	nt	nt	nt	0.0%	5
> O=C(COC(=O)Cc1ccccc1F)NCc1ccc(Cl)cc1
    -0.1	-4	16	0.6	2.8%	-5

Next records.
mol	TRPML1 ag	D2 potentiator	Six1-Eya2 blk	D2 ag	PINK1 expr mod	TRPML1 blocker
O=C(O)CNS(=O)(=O)c1ccc2[nH]c(=O)c(=O)[nH]c2c1	-0.7	-32	5	-2.7	-0.4%	-13
COc1cccc(-n2nc3c(=S)[nH]nc(C)c3c2C)c1	-1.8	-13	4	3.3	3.2%	-16
CCN(CC)S(=O)(=O)c1cccc(-c2nnc(SCc3nnc(-c4ccccc4)o3)n2C)c1	1.5	-21	3	5.9	0.7%	-10
COc1cccc(-n2cc(-c3ccc(F)cc3)[nH]c2=S)c1	2.2	-6	-13	?	-2.1%	-3
c1ccn2cc(CSC3=NCCS3)nc2c1	-0.5	-15	0	-5.1	0.6%	-20
COc1ccc(OC)c(C2C(C#N)=C(N)Oc3c2c(C)nn3-c2cccc(Cl)c2)c1 (configuration not stated)	-0.2	-15	-5	-3.0	-1.8%[38.3 µM]	-10
Nc1nonc1-c1nc2ccccc2n1CC(=O)N/N=C\c1ccc(-c2ccc(Cl)cc2)o1	1.5	-8	0	0.0	7.3%	-20
NC1=NC(c2ccccc2Cl)n2c(nc3ccccc32)N1 (configuration not stated)	4.9	-10	-3	-1.4	0.2%[38.3 µM]	17
O=c1c([N+](=O)[O-])cc(C(F)(F)F)cn1Cc1cccc(Cl)c1	-0.1	9	-2	2.3	-16%[38.3 µM]	17
O=C(CNC(=O)OCc1ccccc1)NC(Cc1cnc[nH]1)C(=O)O (configuration not stated)	-0.2	-10	1	1.1	3.2%	-8
Nc1ccc(-c2nc3c(ccc4ccccc43)[nH]2)cc1	nt	8	-2	-0.9	-0.4%	nt
CC(C)C(NC(=O)C(Cc1ccccc1)NC(=O)OCc1ccccc1)C(=O)O (configuration not stated)	7.4	0	10	-4.4	2.9%	-6
COc1cccc(CCC(=O)O)c1OC	2.2	-13	3	-4.1	0.2%	9
COc1ccc(NC(=O)Cn2nnc(C(=O)NCc3cccc(OC)c3)c2N)cc1	0.6	5	-1	-0.6	2.1%	10
COc1ccc(C(=O)Oc2ccc(=O)n(-c3ccccc3)n2)cc1	1.5	-11	?	-2.7	0.0%	21
O=c1oc2ccccc2n1Cn1c(=O)oc2ccccc21	0.5	0	8	0.5	4.4%	11
O=C(NCc1ccc(F)cc1)C1CCCN(c2cnccn2)C1 (configuration not stated)	4.2	-6	4	-1.7	-2.0%	9
CCOCCCNC(=O)CSc1nc2nc(C)c(Cc3ccccc3)c(C)n2n1	1.4	-1	6	1.6	4.3%	3
COc1cccc(N2C(=O)CC(NNc3nc4ccccc4s3)C2=O)c1 (configuration not stated)	-0.4	-1	5	3.3	0.6%	-2
CCN(CC)S(=O)(=O)c1ccc(OC)c(-n2cnnn2)c1	-0.8&1.4	3	21	0.0	0.7%&-0.8%	7&-13
CC1(Br)C2CCCC1C2S(=O)(=O)c1ccccc1 (configuration not stated)	1.4	1	13	-2.0	7.2%	10
COc1cc(C(=S)NC2CCCCC2)ccc1O	-0.6	-2	-7	-5.8	-0.5%	-13
COc1ccccc1N1CCN(Cc2nc3ccccc3[nH]2)CC1	0.3	nt	1	nt	-0.1%	44
CC(=O)Nc1ccc(NC(=O)CCC(=O)OCC(=O)c2cccc([N+](=O)[O-])c2)cc1	0.3	-24	1	-24	0.4%	1
Cc1nonc1OCCNCCNc1ccccc1[N+](=O)[O-]	0.3	-20	-15	-4.7	-0.8%	-19
O=C(Nc1ncc(Cc2ccc(Cl)cc2)s1)c1ccc2c(c1)CC(c1ccccc1)OC2=O (configuration not stated)	0.3	nt	nt	nt	-1.1%	-5
Cc1c2cnn(-c3ccccc3)c(=O)c2c(C)n1CCCC(=O)Nc1ccc(F)cc1F	-1.1	nt	nt	nt	-0.2%	-10
CC1CCN(C(=O)c2ccc3c(c2)NC(=O)CN3)CC1	1.0	0	-2	0.8	12%	18
Cc1ccc(-n2nc(C(=O)c3ccccc3)n3c(=O)cc(-c4ccccc4)nc23)cc1	-0.6	-7	7	-2.2	8.3%	12
O=S(=O)(Nc1cccnc1)c1ccc(F)cc1	-0.5	1	4	6.5	-0.5%	-8
O=C(CSc1nnc(NC(=O)CN2CCOCC2)s1)Nc1ccccc1	0.8	-19	6	2.1	-1.4%	9
COc1ccc(N/C(N)=N/c2nc(C)c(Cc3ccccc3)c(=O)[nH]2)cc1	2.2	-3	-9	-0.1	3.3%	17
O=C(NCc1ccc(F)cc1)C1CCCN(c2ncnc3onc(-c4ccc(F)cc4)c23)C1 (configuration not stated)	-0.5	nt	nt	nt	0.0%	-16
COc1ccc(-c2cc(C(F)(F)F)nc(N3CCCCC3)n2)cc1OC	2.0	-1	20	-3.2	13%	0
O=C(NCC1CCCO1)C1CCN(C2CCN(C(=O)CC3CCCC3)CC2)CC1 (configuration not stated)	0.4	0	5	2.0	-0.1%	-1
Cc1cccc2cc3c(N)c(C#N)sc3nc12	4.9	10	7	0.0	-1.8%	-3
Cc1ccc(S(=O)(=O)N(C)C)cc1NC(=O)C1CCCCN1S(=O)(=O)c1ccccc1 (configuration not stated)	3.1	-2	-4	-3.1	-0.3%	-5
COc1cccc(C(=O)NNC(=O)Cc2ccc([N+](=O)[O-])cc2)c1	-0.1	11	12	-0.4	0.4%	22
COC(=O)NC1CC2C=CC1C1C=CC21 (configuration not stated)	-0.6	0	6	-2.8	-0.7%	-12
Cn1c(=O)oc2cc(S(=O)(=O)N3CCCC(C(=O)NCc4ccc5c(c4)OCO5)C3)ccc21 (configuration not stated)	-0.8	-4	1	1.7	3.5%	1
O=C(Nc1ccc2c(c1)OCO2)c1csc(COCCO)n1	0.1	-1	11	-4.5	0.5%	nt
O=S(=O)(c1ccccc1)c1nc(NCc2cccnc2)sc1Cl	1.2	-1	-9	0.7	-0.7%	-12
O=C(OCCOCCN=C1NS(=O)(=O)c2ccccc21)c1ccccc1	1.0	-5	8	1.4	-0.7%	-2
Cc1ccc(N2C(=O)CSC2=S)cc1C	0.8	-5	8	-5.2	3.5%	-16
CCn1c(=O)n(CC)c2cc(N3CCCC3)c(NC(=O)c3ccccc3)cc21	-0.4	-2	-7	-1.2	4.4%	12
CCOC(=O)C1CCCN(CCC(=O)Nc2ccc(Br)cc2)C1 (configuration not stated)	-1.2	-27	2	-3.3	-1.5%	7
CCN1C(=O)[C@H]2[C@@H](c3ccc(C)cc3)N3C(=O)N(c4cccc(Br)c4)C(=O)[C@@]3(CC)[C@H]2C1=O	-0.3	-12	0	-2.5	0.4%	2
Cc1ccc(Cc2nnc(SCC(=O)Nc3ccccc3Cl)[nH]c2=O)cc1	0.4	-3	6	-4.0	-0.9%	3
CCN(CC(=O)Nc1cc(Cl)ccc1C)C(=O)COc1ccccc1F	0.5	-28	0	-3.2	1.1%	0
CCOC(=O)C(CCSC)Nc1nc(Cl)nc(Nc2ccc(Cl)cc2)n1 (configuration not stated)	0.3	-7	-6	-1.8	1.1%	20

Screens (PubChem)
